Screening results: PubChem, Broad Institute
FGF22 binding – FGF22 (human) thermal shift binding; recombinant FGF22 thermal shift, SYPRO orange fluorescence; percent of sucrose octasulfate shift, DMSO zero; calls only at 9.99 µM; hit rate 1.5% among 340,000; Q9HCT0;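 active means melting point raised past a set limit in the mean and every replicate; three in four hits are not shown here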
Target sequence (Q9HCT0 whole entry, looked up): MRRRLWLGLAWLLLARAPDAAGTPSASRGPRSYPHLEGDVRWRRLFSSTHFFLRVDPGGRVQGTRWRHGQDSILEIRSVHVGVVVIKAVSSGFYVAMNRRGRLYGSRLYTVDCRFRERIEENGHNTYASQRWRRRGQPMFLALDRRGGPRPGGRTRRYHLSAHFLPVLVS
AF4-AF9 inh – blocks AF4 peptide binding to human AF9; AlphaScreen, biotin-AF4 peptide binding to FLAG-AF9; inhibition, % at 10 µM; AID 651704; hit rate 0.47% among 350,000;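 active means every replicate reaching a set inhibition limit, whatever the replicate mean, cut at about 25% in these data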;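 further: 0% = plate neutral control median and 100% = total signal loss; the record names both 10 and 1 µM as test concentration; the first replicate is given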
Target sequence (P42568 whole entry, looked up): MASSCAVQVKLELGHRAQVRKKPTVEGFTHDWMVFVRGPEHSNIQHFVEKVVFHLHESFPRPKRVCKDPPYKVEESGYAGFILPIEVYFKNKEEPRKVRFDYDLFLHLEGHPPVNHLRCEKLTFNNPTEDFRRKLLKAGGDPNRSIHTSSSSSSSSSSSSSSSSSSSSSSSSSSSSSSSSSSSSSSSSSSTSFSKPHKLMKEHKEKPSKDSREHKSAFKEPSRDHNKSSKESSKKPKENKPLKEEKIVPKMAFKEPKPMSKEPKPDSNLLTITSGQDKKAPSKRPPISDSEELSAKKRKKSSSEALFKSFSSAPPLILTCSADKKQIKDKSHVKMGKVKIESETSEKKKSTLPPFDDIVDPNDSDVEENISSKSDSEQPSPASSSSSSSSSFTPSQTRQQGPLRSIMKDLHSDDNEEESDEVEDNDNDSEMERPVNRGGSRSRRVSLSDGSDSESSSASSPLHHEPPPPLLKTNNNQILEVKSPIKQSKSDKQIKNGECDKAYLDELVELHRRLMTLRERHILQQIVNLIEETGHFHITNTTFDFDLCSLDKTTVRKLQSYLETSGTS
Ecoli rRNA inh – inhibits bacterial ribosomal RNA function over humanized ribosomes; E. coli WT GFP vs humanized-ribosome RFP mutants, fluorescence, 24 h; stronger effect = lower value; DMSO median 0, no signal -100; GFP signal change (wild-type ribosome), % (concentration not given with the values); hit rate 1.6% among 350,000; AID 720706;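 active means significant combined selectivity score with lowered wild-type GFP, culture density cut under 30%, mutant RFP and density less affected; inactive means any of these conditions unmet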; further: one replicate is shown; some compounds called inactive have numbers as strong as hits
Ecoli rRNA inh OD600 – also measured in Ecoli rRNA inh; calls as there; OD600 change, %; measured here: OD600 growth;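 optical density of the mix in the first replicate; 0 = DMSO median and -100 = no signal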
Ecoli rRNA inh RFP – further read-out of Ecoli rRNA inh, marked with its call; RFP signal change, %; measured here: RFP humanized mutant strains;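 first replicate; 0 = DMSO median and -100 = no signal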
* marks the source's active call; other numbers are inactive results; i = inactive; nt = no result given; & = joins results of further samples.

SMILES	FGF22 binding	AF4-AF9 inh	Ecoli rRNA inh	Ecoli rRNA inh OD600	Ecoli rRNA inh RFP
COc1ccc(NC(=O)N(C)C[C@@H]2Oc3c(NS(=O)(=O)c4ccc(OC)cc4)cccc3C(=O)N([C@H](C)CO)C[C@H]2C)cc1	i	5.8	0.1	-0.8	-0.1
CCCN(C)C[C@@H]1Oc2cc(-c3ccccc3)ccc2S(=O)(=O)N([C@H](C)CO)C[C@@H]1C	i	-2.0	-0.7	-7.1	-2.1
C[C@@H]1CN([C@H](C)CO)S(=O)(=O)c2ccc(-c3ccc(C#N)cc3)cc2O[C@@H]1CN(C)C	i	-0.1	3.0	-0.1	-4.3
Cc1noc(C)c1NC(=O)N(C)C[C@@H]1Oc2ccc(NS(=O)(=O)c3cccs3)cc2C(=O)N([C@@H](C)CO)C[C@@H]1C	i	-11.6	4.1	10.8	-0.2
COc1cc(-c2c(CCO)sc3ccccc23)cc(OC)c1OC	i	0.6	-32.2	-54.5	-8.3
CO[C@H]1CN(C)C(=O)c2ccc(NC(=O)C3CCOCC3)cc2OC[C@@H](C)NC[C@@H]1C	i	-18.2	1.4	5.9	-2.0
C[C@@H]1CN([C@H](C)CO)C(=O)c2c(c3ccccc3n2C)-c2ccccc2CO[C@@H]1CN(C)Cc1ccc(Oc2ccccc2)cc1	i	-2.1	4.8	8.2	-2.8
O=C(Nc1cccc(Cl)c1)N[C@H]1CC[C@@H](CCn2cc(Cc3ccccc3)nn2)O[C@H]1CO	i	0.0	-21.4	-35.8	-0.3
CCCCCc1c(-c2ccc(F)cc2F)ncn1CCc1ccccc1OC	i	1.8	-13.9	-29.9	10.1
COc1ccc(-c2ccc3c(c2)[C@@H]2[C@@H](CCN2C(=O)c2cccc(F)c2)[C@@H](CO)N3)cc1	i	-3.5	-16.2	-12.6	-0.3
C[C@@H]1CN([C@@H](C)CO)C(=O)c2cccc(NC(=O)Nc3ccc(F)cc3)c2O[C@@H]1CN(C)C	i	-1.6	3.0	5.4	0.6
C[C@@H]1CN([C@H](C)CO)C(=O)c2cc(NC(=O)c3ccccc3)ccc2O[C@@H](C)CCCCO[C@H]1CN(C)Cc1ccc(C(=O)O)cc1	i	-1.9	0.0	-1.6	3.2
C[C@@H]1CCCCO[C@@H](CN(C)CC2CCCCC2)[C@H](C)CN([C@@H](C)CO)C(=O)c2cc(NC(=O)c3ccncc3)ccc2O1	i	-4.4	-6.0	-1.6	-3.1
C[C@H]1CN([C@@H](C)CO)C(=O)Cc2cc(NS(C)(=O)=O)ccc2O[C@@H]1CN(C)CC1CCCCC1	i	-1.6	-1.0	-2.3	0.8
CCC(=O)N1[C@@H]2Cn3c(ccc(-c4ccccc4)c3=O)[C@H]1[C@@H](C(=O)N1CCCCC1)[C@@H]2CO	i	0.7	-0.8	2.7	-2.5
COc1ccc(CN(C)C(=O)CNC(=O)c2sc3ccccc3c2Cl)c(OC)c1	i	-1.1	5.7	-13.0	9.7
COc1ccc2nc(-c3ccccn3)ccc2c1	i	-7.2	10.1	4.2	3.3
C[C@H](CO)N1C[C@H](C)[C@@H](CN(C)S(C)(=O)=O)Oc2ncc(C#CC3CCCCC3)cc2C1=O	i	4.0	0.3	-8.6	-0.7
C#CCN(C[C@H]1[C@H](OC(=O)NCCCCCC)[C@H](OC(=O)NCCCCCC)C[C@@H](C(=O)OC)[C@H]1C(=O)OC)S(=O)(=O)c1ccc(C)cc1	i	-1.4	10.8	2.4	2.1
COc1ccc(NC(=O)Nc2cccc3c2O[C@@H](CN(C)Cc2ccc(C(=O)Nc4ccccc4N)cc2)[C@H](C)CN([C@@H](C)CO)C3=O)cc1	i	-3.4	-8.7	-7.6	-4.1
C[C@@H]1CN([C@@H](C)CO)C(=O)c2cc(C#Cc3cccc(F)c3)cnc2O[C@@H]1CN(C)C(=O)C1CCCCC1	i	1.6	0.4	-19.3	23.4
C[C@H](CO)N1C[C@H](C)[C@H](CN(C)Cc2ccc(Cl)c(Cl)c2)Oc2ccc(NC(=O)Nc3cccc4ccccc34)cc2C1=O	i	-0.1	2.9	3.0	-0.5
Cc1cccc(S(=O)(=O)N2[C@@H]3Cn4c(cccc4=O)[C@H]2[C@@H](C(=O)NC2CCC2)[C@@H]3CO)c1	i	-1.9	0.9	0.4	-0.1
O=C(Oc1ccccc1)N1CCCCC1	i	0.6	1.8	3.6	-1.1
CC(C)CC#Cc1ccc2c(c1)O[C@H](CN(C)Cc1ccc(F)cc1)[C@@H](C)CN([C@@H](C)CO)S2(=O)=O	i	1.5	0.5	-3.8	0.5
C#CCn1c2ccccc2c(=O)n1C(C)CBr (centres undefined)	i	-5.4	8.3	26.4	1.7
C[C@H](NC(=O)C[C@H]1C[C@@H]2c3cc(NC(=O)Nc4ccc(C(F)(F)F)cc4)ccc3O[C@@H]2[C@@H](CO)O1)c1ccccc1	i	-5.9	-0.7	-7.8	-3.4
COc1ccc2c3c([nH]c2c1)[C@@H](CO)N(C(=O)Nc1ccc(F)cc1)CC31CCN(C(=O)Nc2ccc3c(c2)OCO3)CC1	i	3.1	-5.3	-9.2	-3.6
C[C@H](CO)N1C[C@H](C)[C@H](CN(C)C(=O)Nc2ccc(C(F)(F)F)cc2)Oc2ccc(NC(=O)Nc3ccccc3)cc2C1=O	i	-0.6	-3.7	-12.1	0.5
CCc1ccc2c(c1)NC(=O)C2(C)Cc1ccccc1Cl (centres undefined)	i	-1.4	-64.3	-79.8	-16.9
O=C(C[C@H]1C(=O)N(c2ccccc2)C[C@@H]1Cc1ccccc1)Nc1ccc(Br)cc1	nt	-5.9	-5.4	-9.1	-5.1
O=C(Nc1ccc(F)cc1)N[C@@H]1CC[C@@H](CCn2cc(-c3ccc(F)cc3)nn2)O[C@H]1CO	i	-21.0	2.7	2.7	-3.7
O=C(NCCN1CCOCC1)C1CCN(S(=O)(=O)c2ccccc2)CC1	i	1.0	4.8	11.5	-2.2
CCS(=O)(=O)Nc1ccc2c(c1)C(=O)N(C)[C@H]1CC[C@@H](CC(=O)OC)O[C@H]1CO2	i	-8.7	2.1	-0.1	-1.0
C=CCC[C@@H](CCCCC)OC(=O)/C=C/[C@H](O)[C@@H](O)C[C@H](O)CC=C	i	-10.2	4.7	-3.2	1.5
O=C(C[C@H]1CC[C@@H](NC(=O)C2CCC2)[C@H](CO)O1)NCCCN1CCOCC1	i	-1.1	1.6	5.3	0.1
COc1ccc(CN2C(=O)C(C)Nc3ncnc(N4CCc5ccccc5C4)c32)cc1 (centres undefined)	i	4.2	4.3	0.8	2.4
C[C@H](CO)N1C[C@H](C)[C@@H](CN(C)C(=O)Nc2ccc(F)cc2)OCc2cnnn2CCCC1=O	i	-3.8&-2.4	4.6&-0.4	9.5&11.3	-0.6&2.1
COC(=O)[C@H]1[C@H](CO)[C@H]2Cn3c(ccc(-c4ccccc4OC)c3=O)[C@H]2N1CC1CCCC1	i	0.0	0.4	18.5	2.1
CCCC(=O)Nc1ccc2c(c1)C(=O)N(C)[C@@H]1CC[C@@H](CC(=O)O)O[C@H]1CO2	i	-2.7	0.7	6.1	-1.1
C[C@H]1CCCCO[C@H](CN(C)C(=O)C2CCCCC2)[C@@H](C)CN([C@@H](C)CO)C(=O)c2cc(NC(=O)C3CCCCC3)ccc2O1	i	-0.3	-2.6	-6.5	-0.4
CC1ON=C(c2ccccn2)N(Cc2ccc3c(c2)OCO3)C1=O (centres undefined)	i	-11.6	-0.7	-5.7	-0.8
C[C@H](CO)N1C[C@H](C)[C@@H](CN(C)Cc2ccc3c(c2)OCO3)Oc2c(NC(=O)Nc3ccc(C(F)(F)F)cc3)cccc2C1=O	i	0.1	-1.4	-0.3	0.0
C[C@@H]1CN([C@H](C)CO)S(=O)(=O)c2ccc(-c3cccc(F)c3)cc2O[C@H]1CN(C)C	i	1.7	-4.9	-13.6	-0.5
O=C(NCC[C@H]1CC[C@@H](NC(=O)c2cnccn2)[C@@H](CO)O1)c1ccc2c(c1)OCO2	i	-0.2	0.2	-1.1	-0.9
C/C=C/c1cnc2c(c1)C(=O)N([C@@H](C)CO)C[C@H](C)[C@H](CN(C)Cc1ccccc1F)O2	i	-0.4	1.6	15.2	-3.7
COc1ccc2c3c([nH]c2c1)[C@H](CO)N(C(=O)c1cccc(F)c1)CC31CN(C(C)=O)C1	i	2.5	2.6	2.2	-0.9
C[C@H](CO)N1C[C@H](C)[C@H](CN(C)Cc2ccncc2)Oc2ccc(NC(=O)Cc3ccccc3)cc2C1=O	i	-0.4	-0.1	5.1	-2.5
COc1cccc(CNC(=O)[C@H]2[C@H](CO)[C@H]3Cn4c(cccc4=O)[C@@H]2N3C(=O)C2CCC2)c1	i	-0.6	0.3	-0.4	-1.2
C[C@@H]1CN([C@@H](C)CO)C(=O)c2cc(Br)cnc2O[C@H]1CN(C)C(=O)CN1CCOCC1	i	3.0&-4.0	1.6&2.6	8.6&6.9	0.5&-5.9
O=C(N[C@@H]1CC[C@H](CCNS(=O)(=O)Cc2ccccc2)O[C@H]1CO)c1cnccn1	i	-17.0	1.1	6.2	-3.7
C[C@@H]1CN([C@@H](C)CO)C(=O)c2cccc(NC(=O)C3CC3)c2O[C@H]1CN(C)CC1CC1	i	-1.6	0.3	8.3	1.3
Cn1c(=O)c2cc(NC(=S)NCc3ccccc3F)ccc2n1C	i	2.2	0.6	2.2	1.3
C[C@H]1CN([C@@H](C)CO)C(=O)Cc2cc(NS(=O)(=O)c3ccc(F)cc3)ccc2O[C@H]1CN(C)C(=O)Nc1cccc2ccccc12	i	-0.6	-3.4	1.5	2.7
COc1ccc(-c2ccc3n(c2=O)C[C@@H]2[C@@H](CO)[C@H](C(=O)N4CCOCC4)N[C@H]32)cc1	i	-0.4	-2.5	0.0	-1.3
COc1ccc(S(=O)(=O)Nc2ccc3c(c2)C(=O)N([C@@H](C)CO)C[C@@H](C)[C@H](CN(C)S(=O)(=O)c2ccc(F)cc2)O3)cc1	i	1.5	-1.5	-10.4	0.8
O=C(NN=Cc1ccc2c(c1)CCN2)c1cccs1	i	2.1	-14.4	0.3	1.2
C[C@H](CO)N1C[C@H](C)[C@H](CN(C)S(=O)(=O)c2ccc(Cl)cc2)OCCCC[C@H](C)Oc2ccc(NC(=O)c3ccccc3)cc2C1=O	i	2.5	1.7	10.7	3.2
CO[C@@H]1CN(C)C(=O)c2cc(NC(C)=O)ccc2OC[C@@H](C)N(Cc2ccccc2F)C[C@@H]1C	i	2.7	0.5	5.6	0.1
CC(=NNC1=NCCN1)c1cnn(C2=NCCN2)c1C	i	1.2	10.5	7.3	-2.4

Next compounds
SMILES	FGF22 binding	AF4-AF9 inh	Ecoli rRNA inh	Ecoli rRNA inh OD600	Ecoli rRNA inh RFP
CN1c2ccc(-c3ccccc3)cc2[C@@H]2[C@@H](CCN2C(=O)CC2CC2)[C@H]1CO	i	-2.4	-7.8	-21.4	-4.2
COc1ccc(S(=O)(=O)N(C)C[C@@H]2OCCCC[C@H](C)Oc3ccc(NC(=O)c4ccccc4)cc3C(=O)N([C@@H](C)CO)C[C@H]2C)cc1	i	3.0	-1.7	1.9	0.2
C[C@@H]1CN([C@@H](C)CO)C(=O)c2cc(-c3cccc(C(=O)N(C)C)c3)cnc2O[C@H]1CN(C)S(=O)(=O)c1cccc(F)c1	i	1.1	-4.4	4.7	-3.4
Cc1ccc(S(=O)(=O)N2C[C@H]3[C@H]4C(=O)N(C5CCCCC5)C(=O)[C@H]4CC(=O)[C@H]3[C@@H]2c2ccccc2F)cc1	i	-1.0	7.2	8.7	-0.1
O=C1NC[C@H](Cc2ccccc2)N(CC2CCN(CCCC3CCCC3)CC2)C1=O	i	-1.8	9.7	-4.2	-0.4
CCCNC(=O)C[C@H]1C[C@@H]2c3cc(NS(C)(=O)=O)ccc3O[C@@H]2[C@@H](CO)O1	i	-4.2	3.3	-5.1	-1.9
C[C@H](CO)N1C[C@H](C)[C@@H](CN(C)Cc2ccc(Oc3ccccc3)cc2)Oc2ccc(NS(=O)(=O)c3cn(C)cn3)cc2C1=O	i	3.8	0.3	-5.8	2.8

Ordered by formula weight (rising): part of the list above
SMILES	FGF22 binding	AF4-AF9 inh	Ecoli rRNA inh	Ecoli rRNA inh OD600	Ecoli rRNA inh RFP
CC(=NNC1=NCCN1)c1cnn(C2=NCCN2)c1C	i	1.2	10.5	7.3	-2.4
CN1c2ccc(-c3ccccc3)cc2[C@@H]2[C@@H](CCN2C(=O)CC2CC2)[C@H]1CO	i	-2.4	-7.8	-21.4	-4.2
Cc1ccc(S(=O)(=O)N2C[C@H]3[C@H]4C(=O)N(C5CCCCC5)C(=O)[C@H]4CC(=O)[C@H]3[C@@H]2c2ccccc2F)cc1	i	-1.0	7.2	8.7	-0.1
C[C@@H]1CN([C@@H](C)CO)C(=O)c2cc(-c3cccc(C(=O)N(C)C)c3)cnc2O[C@H]1CN(C)S(=O)(=O)c1cccc(F)c1	i	1.1	-4.4	4.7	-3.4
COc1ccc(S(=O)(=O)N(C)C[C@@H]2OCCCC[C@H](C)Oc3ccc(NC(=O)c4ccccc4)cc3C(=O)N([C@@H](C)CO)C[C@H]2C)cc1	i	3.0	-1.7	1.9	0.2

The list is partial (hit frequency here may not be typical).
